2A StopGo: lowers the luciferase signal of an FMDV 2A StopGo reporter; human cells with a luciferase reporter of 2A StopGo recoding; control for the full effect not named in the record; Potency, µM (doses to about 57.9 µM), for inactives: at the top dose signal change, negative = less light; actives 1.2% (n = 410,000); active = well fitted falling curve with a large enough effect; inconclusive = small, poorly fitted or top-dose-only effect; inactive = no such curve, though single readings can be large or run the other way; tested in HEK293T cells; note: % is set by controls: 0 for no effect and ±100 for the full control effect; nearly all actives have a fitted effect of over 45% in size; luciferase light after 4 h
RE007 growth inh: less growth of the S. pombe RE007 Vpr strain; Potency, µM (highest dose often 92.2 µM), inactives show top-dose activity change, negative = less growth; actives 0.21% (n = 360,000); S. pombe RE007 Vpr strain, BacTiter-Glo ATP luminescence, 24 h; control for the full effect not named in the record; active = well fitted falling curve with a large enough effect; inconclusive = small, poorly fitted or top-dose-only effect; inactive = no such curve, though single readings can be large or run the other way;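 note: % is set by controls: 0 for no effect and ±100 for the full control effect; nearly all actives have a fitted effect of over 50% in size; the assay follows cell death caused by Vpr and the record does not say whether a fall means rescue or toxicity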
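Fission yeast RE007 carrying one integrated HIV-1 vpr copy, seeded at OD 0.01 in PMG+AL medium with 23 nL pinned compound. Grown 24 h at 30 degrees; viability read by BacTiter-Glo luminescence after 5 min.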
Marburg entry inh: inhibitors of Marburg virus binding or cell entry; Marburg virus pseudotyped entry inhibition, cell reporter; control for the full effect not named in the record; about a third of the inactives were read at about 46 µM; Potency, µM (titrated, usually from 37.8 µM), for the others: at the highest dose activity change, negative = inhibition, hits mostly inhibitors; actives 1.8% (n = 300,000); AID 540276; active = well fitted inhibition curve with a large enough effect; inconclusive = small, poorly fitted or top-dose-only effect, or effect the other way; inactive = flat fitted curve, though single readings scatter; tested in HEK293 cells; about a fifth of its hits are not listed in these tables; note: % is set by controls: 0 for no effect and ±100 for the full control effect; luciferase read-out
Lassa entry inh: inhibitors of Lassa virus binding or cell entry. Lassa virus pseudotype entry inhibition, cell reporter; control for the full effect not named in the record. Potency, µM (top dose mostly 37.9 µM), for inactives: at the highest dose activity change, negative = inhibition, actives largely listed as inhibitors. actives 1.2% (n = 300,000). AID 540256; active means well fitted inhibition curve with a large enough effect; inconclusive means small, poorly fitted or top-dose-only effect, or effect the other way; inactive means flat fitted curve, though single readings scatter; tested in HEK293 cells; note: % is set by controls: 0 for no effect and ±100 for the full control effect; nearly all actives have a fitted effect of over 50% in size; luciferase read-out
NS1 inh: inhibitors of influenza NS1 protein function; S. cerevisiae slowed by influenza A NS1, growth recovery by OD600; Potency, µM (titrated, usually from 46.1 µM), for the others: top-dose activity, positive = more growth; actives 0.4% (n = 270,000); AID 2326; active means well fitted rising curve with a large enough effect; inconclusive means small, poorly fitted or top-dose-only effect; inactive means no such curve, though single readings can be large or run the other way; note: nearly all actives have a fitted effect of over 50% in size
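OD600 was taken as the measure of yeast growth restored by compound in an NS1-expressing S. cerevisiae strain. Cells had been washed out of glucose medium and diluted 1:100 into galactose -URA medium, pH 6.0.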
Cruzain noTriton: inhibitors of Trypanosoma cruzi cruzain without detergent; AID 1476; purified cruzain, Z-FR-AMC fluorescence, no detergent; Potency, µM, for inactives: max response, negative = inhibition, most hits filed as inhibitors; actives 2.3% (n = 200,000); P25779;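 note: plate controls were enzyme without inhibitor for no effect and buffer without enzyme for full effect; nearly all actives have a fitted effect of over 40% in size; top concentration of the series not given in the record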
Target sequence (P25779 123-467 limits assumed): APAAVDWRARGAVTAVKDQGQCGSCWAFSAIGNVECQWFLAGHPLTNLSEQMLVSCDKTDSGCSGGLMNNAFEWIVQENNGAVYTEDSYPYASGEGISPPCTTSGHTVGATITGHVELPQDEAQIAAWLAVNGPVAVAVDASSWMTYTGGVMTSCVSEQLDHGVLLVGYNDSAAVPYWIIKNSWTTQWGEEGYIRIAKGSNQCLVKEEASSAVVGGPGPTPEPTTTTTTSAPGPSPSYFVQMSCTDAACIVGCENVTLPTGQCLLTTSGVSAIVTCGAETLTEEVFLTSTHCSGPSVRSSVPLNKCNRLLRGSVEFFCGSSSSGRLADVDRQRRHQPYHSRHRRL
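Detergent-free condition (0.00005% Triton X-100) in acetate buffer pH 5.5 with DTT. 1.5 nM enzyme and compound were pre-mixed 15 min, then 2 uM Z-FR-AMC substrate added; reaction progress from fluorescence change between first and third reads (60 s).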
Cruzain inh Det: blocks cruzain activity in presence of Triton detergent; purified cruzain, Z-FR-AMC fluorescence, 0.01% Triton; Potency, µM, without a hit: max response, negative = inhibition, actives largely listed as inhibitors; actives 0.43% (n = 200,000); P25779; AID 1478;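 note: plate controls were neutral wells for no effect and buffer without enzyme for full effect; nearly all actives have a fitted effect of over 40% in size; top concentration of the series not given in the record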
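Compounds were screened in titration against cruzain (1.5 nM) with 0.01% Triton X-100 to counter colloidal aggregation. Activity was the AMC fluorescence increase over 60 s after adding 2 uM Z-FR-AMC at pH 5.5.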
SARS PLpro yeast: blocks SARS-CoV papain-like protease in a yeast assay; S. cerevisiae expressing SARS-CoV PLpro, growth rescue; control for the full effect not named in the record; Potency, µM (titrated, usually from 32.9 µM), for the others: at the highest dose activity, positive = growth rescue; actives 0.19% (n = 330,000); AID 485353; active means well fitted rising curve with a large enough effect; inconclusive means small, poorly fitted or top-dose-only effect; inactive means no such curve, though single readings can be large or run the other way; note: 0% is about no effect; nearly all actives have a fitted effect of over 55% in size; growth read by luminescence after 48 h
* hit, by the source's call; ? = inconclusive; nt = no result given; [ ] = dose if it differs, or a comment. Unless noted, calls come from the whole dose curve; as a rule, active = well fitted curve in the direction sought with a large enough effect; inconclusive = small, poorly fitted or top-dose-only effect, or another doubt; inactive = no such curve, though single readings can be large; an effect the other way counts as inactive or inconclusive. Potency is the fitted concentration of half-maximal effect.

SMILES	2A StopGo	RE007 growth inh	Marburg entry inh	Lassa entry inh	NS1 inh	Cruzain noTriton	Cruzain inh Det	SARS PLpro yeast
Cc1nnc(Sc2cc(C(=O)NCc3ccco3)c3ccccc3n2)s1	-0.7%	-7.7%	-4.6%	-1.2%	-27.1%	-5.7%	?	-3.3%
Cc1ccc(C(=O)N2c3ccccc3NC(=O)C2C)cc1 (stereo not given)	1.0%	10.9%	-1.8%[46.1 µM]	8.3%[46.1 µM]	nt	nt	nt	0.5%
CC1CCN(c2nc3ccccc3nc2C(F)(F)F)CC1	-23.8%	nt	nt	2.2%[46.1 µM]	nt	4.8%	2.3%	nt
O=C(NC12CC3CC(CC(C3)C1)C2)c1cc([N+](=O)[O-])ccc1N1CCOCC1	0.0%	-2.0%	?	2.1%	4.4%	nt	nt	3.9%
COc1nc(N(CC(N)=O)S(=O)(=O)c2ccccc2)nc(C)c1Cl	51.1%[activator]	-3.8%	20.3%	11.7%	3.2%	-3.9%	-2.4%	-8.9%
Cc1c(Cl)c([N+](=O)[O-])nn1CCCC(=O)N(Cc1ccccc1)Cc1ccccc1	-14.1%	1.4%	?	-0.4%	-25.6%	10.5%	-8.6%	-6.2%
O=C1CSC(=S)N1c1cccc(Cl)c1	0.0%	-19.4%	nt	nt	3.3%	nt	nt	-1.2%
CCCCN(C)C1=Nc2cccc3cccc1c23	-8.4%	11.6%	?	-21.5%	-1.2%	-10.9%	0.4%	1.3%
CCN1CCN(C(=O)CCc2nnc(CCc3ccccc3OC)o2)[C@@H](C)C1=O	11.6%	16.7%	?	23.6%[46.1 µM]	1.3%	nt	nt	-3.3%
CN(Cc1nccs1)C(=O)C1CCC(=O)N(CCc2cccc(F)c2)C1 (stereo not given)	8.0%	0.5%	22.6%	5.3%	7.9%	nt	nt	-1.2%
O=C(Nc1ccccc1NC(=O)c1ccco1)c1ccccc1	?	19.6%	-4.0%[46.1 µM]	5.1%	7.5%	nt	nt	-0.5%
COc1ccc(NC2c3ccccc3C(=O)N2Cc2ccccc2Cl)cc1OC (stereo not given)	-12.9%	-3.7%	nt	nt	8.9%	nt	nt	-0.3%
O=C(CCSCc1ccccc1F)NCc1cccs1	-5.8%	11.2%	22.5%[46.1 µM]	12.0%	nt	nt	nt	-1.1%
Cc1ccc(S(=O)(=O)Nc2ccc3c(c2)OCCO3)cc1	22.2%	-9.6%	-25.1%[46.1 µM]	?	2.1%	nt	nt	-6.2%
O=C1/C(=C/c2ccc3c(c2)OCO3)Oc2cc(OCC(=O)N3CCC[C@H]3C(=O)O)ccc21	-9.9%	0.3%	nt	nt	17.4%	nt	nt	7.8%
COc1ccccc1-c1cc(C(=O)NC2CCN(C)CC2)c2ccc(Cl)c(C)c2n1	-20.5%	-15.0%	?	?	3.2%	nt	nt	-10.1%
Brc1cccc(OCCCCn2cncn2)c1	-7.8%	-3.7%	nt	nt	-17.4%	nt	nt	-5.0%
Cc1ccc(OCC(O)CN2CCN(Cc3ccc4c(c3)OCO4)CC2)cc1C (stereo not given)	0.0%	nt	?	?	-8.2%	-3.1%	0.2%	-0.3%
Cn1nnc(NC(=O)c2ccc([N+](=O)[O-])cc2Cl)n1	15.7%	-10.1%	-1.1%[46.1 µM]	9.6%	9.8%	nt	nt	0.7%
CC(=O)Oc1ccc2nc(-c3ccco3)oc(=O)c2c1	6.8%	-6.8%	-9.2%[46.1 µM]	10.7%[46.1 µM]	27.0%	nt	nt	1.1%
Cc1nccn1CCCN1C(=O)OC2(CCCCC2)C1(C)O (stereo not given)	-20.4%	16.6%	6.8%	2.0%	1.3%	-25.1%	0.6%	13.7%
CCOc1ccccc1N(CC)C(=O)c1nn(C)c2c1CSc1ccccc1-2	0.0%	-2.5%	nt	nt	-13.7%	nt	nt	-18.1%
c1ccc(-c2nnc(CSc3nncs3)o2)cc1	39.3%[activator]	28.6%	26.2%	17.6%	-2.2%	4.4%	-0.3%	-9.1%
Cc1c(-c2ccccc2)c(=O)oc2cc(O)ccc12	3.8%	12.5%	nt	nt	-40.5%	nt	nt	-0.6%
CCOCCCN1C(=O)c2ccccc2CC1(C)C(=O)NC1CCCCC1 (stereo not given)	-5.6%	nt	?	nt	nt	6.6%	0.9%	nt
CC1=CC(C)(C)Nc2ccc(C)cc21	0.1%	-7.5%	6.4%	0.8%	1.9%	-0.8%	0.8%	6.0%
CCc1ccc2c(CC(=O)Nc3nnc(C4CC4)s3)coc2c1	4.1%	6.4%	?	?	-9.9%	-23.2%	-1.6%	0.4%
O=C(NCc1nc2ccccc2[nH]1)C1=C[C@H](c2ccc(C(F)(F)F)cc2)C[C@H](OCc2ccc(CO)cc2)O1	-27.1%	-9.0%	nt	nt	17.4%	nt	nt	-0.5%
CCCN(CCC)CCCNC(=O)c1cc2cc3ccc(Cl)cc3nc2o1	21.8%	12.0%	5.8%	?	2.0%	nt	nt	-0.8%
COc1ccc(C(=O)N2CCN(c3ccc(NC(=O)c4cccs4)cc3)CC2)cc1	?	2.6%	-23.7%	0.8%	6.7%	nt	nt	2.2%
CC(C)CNC(=S)N(CCCO)Cc1cc2cc3c(cc2[nH]c1=O)OCO3	1.3%	-4.9%	?	-25.4%	-1.4%	nt	nt	8.5%
CCOc1cc(C(=O)OCC(=O)NC(C)c2ccccc2)ccc1OCC(=O)N1CCOCC1 (stereo not given)	-10.5%	-9.0%	?	-2.2%	nt	nt	nt	3.1%
CCCCn1c(N)c(N(CCOC)C(=O)c2ccc(F)c(S(=O)(=O)N3CCOCC3)c2)c(=O)[nH]c1=O	-20.5%	-7.2%	22.7%	-2.0%	nt	nt	nt	-5.4%
CCC(C)NS(=O)(=O)c1ccc(OCC(=O)Nc2ccc3c(c2)OCCO3)cc1 (stereo not given)	nt	0.1%	-2.9%	-13.6%	9.2%	-7.6%	0.0%	6.0%
Cc1cc(NS(=O)(=O)c2ccc(NC(=S)NC(=O)c3ccc(F)cc3Cl)cc2)no1	47.3%[activator]	6.2%	-2.1%	3.5%	?	-16.2%	-8.2%	-4.5%
Cc1cccc(N(CC(=O)Nc2ccc(CC#N)cc2)S(C)(=O)=O)c1	-12.1%	5.1%	-22.5%	-11.6%	7.8%	9.2%	-6.3%	7.3%
Cc1ccc(O)c(CNc2nccs2)c1	9.7%	0.4%	?	?	-3.0%	nt	nt	0.6%
O=C(NCCCn1ccnc1)c1c(F)cccc1F	-18.7%	3.0%	nt	nt	3.1%	nt	nt	-4.3%
C[C@H](NC(=O)c1ccco1)C(=O)OCC(=O)N1CC(=O)Nc2ccccc21	-0.1%	0.8%	-3.0%[46.1 µM]	7.3%[46.1 µM]	nt	nt	nt	8.0%
CCCN(c1ccccc1F)S(=O)(=O)c1c[nH]c(C(=O)OC)c1	12.6%	-0.7%	nt	nt	-0.8%	nt	nt	-0.9%
COCCSc1nnc(-c2cnccn2)o1	25.2%	6.0%	-5.7%[46.1 µM]	5.2%	-7.8%	-8.0%	-7.6%	-0.8%
COc1ccccc1NC(=O)Cn1c(CCC(=O)O)ccc1-c1ccccc1	-10.0%	1.1%	-3.6%[46.1 µM]	-9.1%[46.1 µM]	nt	nt	nt	-0.3%
COc1cc(C2c3c(oc4ccc(F)cc4c3=O)C(=O)N2c2nc(C)c(C)s2)cc(OC)c1OC (stereo not given)	-1.0%	nt	?	-6.4%[46.1 µM]	nt	23.0%	2.2%	nt
CCOc1ccccc1N1CCN(C(=O)Cc2ccc(S(=O)(=O)N3CCOCC3)s2)CC1	-10.0%	-0.2%	?	-2.5%	nt	nt	nt	-6.2%
O=C1c2[nH]nc(-c3ccccc3O)c2C(c2ccc(F)cc2)N1Cc1ccco1 (stereo not given)	?	3.8%	?	8.2µM*	?	7.0%	-14.1%	-21.2%
CCN1CCN(Cc2nc3cc(NC(=O)COc4ccc([N+](=O)[O-])cc4)ccc3n2C)CC1	-24.6%	-5.9%	nt	nt	-5.7%	nt	nt	-4.8%
COc1ccc(NC(=O)NNC(=O)COc2ccc([N+](=O)[O-])c(C)c2)cc1OC	-4.7%	13.6%	?	-1.9%	-5.5%	nt	nt	-9.9%
Cc1c(CCC(=O)NCCCCCC(=O)O)c(=O)oc2c(C)c3oc4c(c3cc12)CCCC4	-6.4%	5.8%	nt	nt	7.1%	nt	nt	-0.2%
Cc1cccc2cccnc12	0.0%	4.7%	nt	nt	nt	-8.0%	0.6%	0.6%
CC1CCN(S(=O)(=O)c2ccc3c(c2)CCN3C(=O)C2CCC2)CC1	-16.0%	7.9%	nt	nt	-5.4%	nt	nt	-0.8%
COc1cccc(C(=O)NCC(=O)OC(C)C(=O)NC23CC4CC(CC(C4)C2)C3)c1 (stereo not given)	2.7%	-9.2%	-15.7%	?	nt	nt	nt	-3.4%
COc1ccccc1/C=C/C=N/NC(=O)c1cc(-c2ccco2)[nH]n1	2.5%	-0.4%	?	-10.1%	3.1%	nt	nt	0.1%
CCOc1ccccc1N(CC(=O)N1CCC(C)CC1)S(=O)(=O)c1ccc(C)cc1	35.6%[activator]	3.1%	?	-17.5%	-23.2%	nt	nt	0.6%
CC1CCCC(NC(=O)CN2CCN(Cc3ccc(Cl)cc3)C2=O)C1C (stereo not given)	?	-6.7%	-6.1%[46.1 µM]	?	-7.2%	12.3%	-4.1%	3.3%
O=C(c1ccccc1)N(CCO)Cc1cc2cc3c(cc2[nH]c1=O)OCCO3	-15.4%	6.0%	?	-10.7%	nt	nt	nt	23.0%
CCOc1ccc(S(=O)(=O)N(C)c2ccc(OCC(=O)Nc3nc4ccccc4s3)cc2)cc1	?	5.5%	?	?	-0.5%	?	0.5%	9.0%
CCOC(=O)c1cc2cc([N+](=O)[O-])cc(OC)c2oc1=O	-13.5%	-3.3%	-0.7%[46.1 µM]	-0.7%	-0.3%	nt	nt	0.0%
O=C(/C(=C/c1ccccc1Cl)c1ccccc1)N1CCOCC1	-25.1%	nt	-23.9%	-17.8%	0.2%	1.5%	-1.6%	-2.0%
Cc1coc2c1c(C)cc1oc(=O)c(CC(=O)NCCc3ccc(Cl)cc3)c(C)c12	-1.1%	nt	7.0%[46.1 µM]	-0.3%[46.1 µM]	nt	2.7%	-0.2%	nt
